NOMO-1 viab = STK33 inhibitor candidate reducing NOMO-1 cell viability. NOMO-1 AML viability, CellTiter-Glo luminescence, 72 h. inhibition, % (no concentration beside the values). 37,000 compounds, 7.5% hits. AID 2330;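 active = most replicates above 80%; inconclusive = exactly half above 80%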;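 note: wells of about 30 µL received 25 nL stock; 0% = median of vehicle wells and 100% = reference inhibitor level; the first replicate is given; inactives centre near 10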
An asterisk follows results filed as active; ? = inconclusive. These rows are one share of the data. The share of hits here may be higher or lower than overall.

SMILES	NOMO-1 viab
O=C(Cn1c(-c2cscn2)nc2ccccc21)Nc1ccccc1F	54
COc1ccc(NC(=O)Nc2ccc3c(c2)C(=O)N([C@H](C)CO)C[C@H](C)[C@@H](CN(C)S(=O)(=O)c2cccs2)OCCCC[C@@H](C)O3)cc1	21
COc1ccc(NC(=O)CSc2nncc3ccccc23)c([N+](=O)[O-])c1	31
CC(NS(=O)(=O)c1cc(Cl)ccc1Cl)C(=O)Nc1cccc([N+](=O)[O-])c1 (stereo unspecified)	13
Cc1ccc([N+](=O)[O-])cc1NC(=O)C1CCCN(S(=O)(=O)c2ccc(Cl)cc2)C1 (stereo unspecified)	30
C[C@@H]1CN([C@H](C)CO)C(=O)c2cccc(NS(=O)(=O)c3ccc(Cl)cc3)c2O[C@@H]1CN(C)C(=O)Nc1ccc(F)cc1	13
C[C@H](CO)N1C[C@H](C)[C@H](CN(C)Cc2ccc(C(F)(F)F)cc2)Oc2ccc(NS(=O)(=O)c3ccccc3)cc2C1=O	29
C[C@H](CO)N1C[C@H](C)[C@@H](CN(C)C(=O)Nc2cccc3ccccc23)Oc2ccc(NC(=O)Nc3ccc(C(F)(F)F)cc3)cc2C1=O	70
CC(C)NC(=O)N(C)C[C@H]1Oc2ccc(NC(=O)C3CC3)cc2CC(=O)N([C@@H](C)CO)C[C@@H]1C	14
COc1ccc(N(C(C)C(=O)Nc2ccc(C(F)(F)F)cc2)S(C)(=O)=O)cc1 (stereo unspecified)	35
C[C@@H]1CN([C@H](C)CO)C(=O)Cc2cc(NC(=O)CCCCCC(=O)Nc3ccccc3N)ccc2O[C@H]1CN(C)C(=O)Nc1cccc2ccccc12	15
COC(=O)c1c(NC(=O)CN(c2cc(C)ccc2C)S(C)(=O)=O)sc2c1CCCC2	15
C[C@@H]1CN([C@@H](C)CO)C(=O)c2cc(NC(=O)CCCN(C)C)ccc2O[C@H]1CN(C)S(=O)(=O)c1ccccc1	-2
Cc1ccc(S(=O)(=O)Nc2cccc3c2O[C@@H](CN(C)C(=O)Nc2ccc(C(F)(F)F)cc2)[C@H](C)CN([C@@H](C)CO)C3=O)cc1	0
CCOc1ccc2nc(SCC(=O)Nc3ccc4c(c3)OCCO4)[nH]c2c1	-9
COc1ccc(S(=O)(=O)N(C)C[C@@H]2Oc3ccc(NC(=O)Nc4ccc5c(c4)OCO5)cc3C(=O)N([C@H](C)CO)C[C@@H]2C)cc1	55
COc1ccccc1NC(=O)c1c(NCc2ccc(C)o2)sc2c1CCC2	27
CC(C)NC(=O)N(C)C[C@@H]1Oc2c(NC(=O)Nc3cccc4ccccc34)cccc2C(=O)N([C@H](C)CO)C[C@H]1C	11
C[C@H](CO)N1C[C@H](C)[C@H](CN(C)S(=O)(=O)c2cccs2)Oc2ccc(NC(=O)Nc3ccccc3)cc2CC1=O	29
C[C@@H]1CN([C@H](C)CO)C(=O)Cc2cc(NS(=O)(=O)c3ccccc3)ccc2O[C@H]1CN(C)CC1CCCCC1	62
CC1(C)CC(=O)c2cnc(NC(=O)CSc3nc4ccccc4o3)nc2C1	22
C[C@H]1CN([C@@H](C)CO)C(=O)c2cccc(NC(=O)Nc3ccccc3)c2O[C@H]1CN(C)C(=O)Nc1cccc2ccccc12	24
C[C@@H]1CN([C@H](C)CO)C(=O)c2cc(NS(=O)(=O)c3ccccc3)ccc2O[C@@H]1CN(C)C(=O)Nc1cccc2ccccc12	19
CN(C)c1nc(N)nc(CSc2ncc(Cl)cc2Cl)n1	18
CC1(C)N=C(NS(=O)(=O)c2cc(C(F)(F)F)cc(C(F)(F)F)c2)N(c2ccccc2)O1	14
C[C@@H]1CN([C@H](C)CO)C(=O)c2cc(NC(=O)Nc3ccc4c(c3)OCO4)ccc2O[C@@H]1CN(C)C	15
O=C(O)CCC(=O)Nc1ccc(-c2nc3ccc(C(=O)c4ccccc4)cc3[nH]2)cc1	-24
C[C@@H]1O[C@@H](O[C@H]2[C@H](O[C@H]3[C@H](O[C@H]4CC[C@@]5(C)C(CC[C@]6(C)C5CC=C5[C@@H]7CC(C)(C)C[C@@H](O)[C@]7(C)CC[C@]56C)[C@@]4(C)CO)O[C@H](C(=O)O)[C@@H](O)[C@@H]3O)OC[C@H](O)[C@@H]2O)[C@H](O)[C@H](O)[C@H]1O (stereo partly specified)	18
Cc1noc(C)c1S(=O)(=O)N(C)C[C@H]1Oc2c(NC(=O)c3ccc(-c4nccs4)cc3)cccc2C(=O)N([C@H](C)CO)C[C@H]1C	-5
CNC[C@@H]1Oc2c(NC(=O)Nc3ccc(C(F)(F)F)cc3)cccc2C(=O)N([C@H](C)CO)C[C@@H]1C	4
COc1ccc(N(CC(=O)Nc2c(F)cccc2F)S(C)(=O)=O)cc1Cl	15
O=C(CSc1nnc(-c2ccccc2F)n1-c1ccccc1)Nc1ccc2cn[nH]c2c1	3
C[C@@H]1CN([C@@H](C)CO)C(=O)c2cc(NS(=O)(=O)c3cccs3)ccc2O[C@H]1CN(C)Cc1ccncc1	28
Cc1ccc(-n2c(SCC(=O)OC(C)C)nnc2-c2ccncc2)cc1	17
COc1cc(NC(=O)CSc2ncnc3sc(C)c(C)c23)cc(OC)c1	-2
C[C@@H]1CN([C@@H](C)CO)C(=O)Cc2cc(NC(=O)Nc3ccc4c(c3)OCO4)ccc2O[C@@H]1CN(C)C(=O)NC1CCCCC1	-3
O=C(CCN1C(=O)c2ccccc2S1(=O)=O)Nc1ccc(F)cc1F	-7
CCN1CCN(C(=O)c2ccccc2N(Cc2ccccc2)S(C)(=O)=O)CC1	22
O=C(O)CCC/C=C\C[C@@H]1[C@@H](/C=C/[C@@H](O)COc2cccc(Cl)c2)[C@H](O)C[C@@H]1O	10
CC(=O)CCc1ccc(Oc2ccc(C(F)(F)F)cn2)cc1	35
CSc1nc2sc3c(c2c2nnc(SCC(=O)Nc4ccccc4)n12)CCC3	129*
Cc1ccc2ccc(C(Nc3ccccn3)c3ccccc3Cl)c(O)c2n1 (stereo unspecified)	106*
COC(=O)c1ccccc1NC(=O)CSc1ncnc2sc3c(c12)CCC(C)C3 (stereo unspecified)	17
C/C1=C/CCC2=CC(OC2=O)C(C)(C)/C=C/C1=O (stereo unspecified)	119*
C[C@H]1CN([C@@H](C)CO)C(=O)Cc2cc(NC(=O)C3CCCCC3)ccc2O[C@@H]1CN(C)C(=O)NC1CCCCC1	5
Cc1cc(Cl)ccc1OCC(=O)Nc1cc(Cl)ccc1C(=O)O	7
Cc1ccc(S(=O)(=O)N(C)C[C@@H]2Oc3c(NC(=O)CCCCCC(=O)Nc4ccccc4N)cccc3C(=O)N([C@H](C)CO)C[C@@H]2C)cc1	111*
C[C@@H]1CN([C@H](C)CO)C(=O)c2cccc(NS(=O)(=O)c3ccc(Cl)cc3)c2O[C@H]1CN(C)S(=O)(=O)c1cccs1	6
CCn1c2ccccc2n2c(SCC(=O)Nc3ccc(C)cc3)nnc12	-4
COC(=O)C1=C(C)NC2=C(C(=O)c3ccccc32)C1c1cc(Cl)c(OCc2ccc([N+](=O)[O-])cc2)c(OC)c1 (stereo unspecified)	34
C[C@H]1CN([C@@H](C)CO)C(=O)c2cc(NC(=O)CCCN(C)C)ccc2O[C@@H]1CN(C)S(=O)(=O)c1ccccc1	-11
Cc1noc(C)c1NC(=O)N(C)C[C@@H]1Oc2ccc(NC(=O)C3CC3)cc2CC(=O)N([C@@H](C)CO)C[C@@H]1C	1
C[C@@H]1CN([C@@H](C)CO)C(=O)Cc2cc(NC(=O)Nc3ccc(F)cc3)ccc2O[C@@H]1CN(C)Cc1ccc(Oc2ccccc2)cc1	15
C=CCC1C(=O)N(S(=O)(=O)c2ccc(Cl)cc2)N=C1CCC (stereo unspecified)	110*
CNC[C@H]1Oc2ccc(NC(=O)NC3CCCCC3)cc2C(=O)N([C@@H](C)CO)C[C@@H]1C	7
C[C@H]1CN([C@@H](C)CO)C(=O)c2cc(NC(=O)Nc3ccc(F)cc3)ccc2O[C@H]1CN(C)C(=O)Nc1ccc(F)cc1	-8
C[C@@H]1CN([C@@H](C)CO)C(=O)Cc2cc(NC(=O)C3CC3)ccc2O[C@@H]1CN(C)C(=O)NC1CCCCC1	-18
COc1cc(/C=C/C(=O)OCC[N+](C)(C)C)cc(OC)c1O	-10
C[C@@H]1CN([C@H](C)CO)C(=O)c2cc(NS(C)(=O)=O)ccc2O[C@@H]1CN(C)C(=O)NC1CCCCC1	4
COc1ccc(CN(C)C[C@H]2Oc3c(NC(=O)C4CCCCC4)cccc3C(=O)N([C@@H](C)CO)C[C@H]2C)cc1	2
More compounds.
SMILES	NOMO-1 viab
C[C@@H]1CN([C@@H](C)CO)C(=O)c2cc(NC(=O)CCN3CCOCC3)ccc2O[C@@H]1CN(C)Cc1ccc(Cl)c(Cl)c1	21
COc1ccc(NC(=O)c2cccc(C)c2)c(OC)c1	14
C[C@@H]1CN([C@@H](C)CO)C(=O)c2cccc(NS(=O)(=O)c3cccs3)c2O[C@@H]1CN(C)S(=O)(=O)c1cn(C)cn1	-10
CC(C)=CCc1c(O)c(CC=C(C)C)c2c(c1O)C(=O)CC(c1ccccc1)O2 (stereo unspecified)	35
C[C@@H]1CN([C@@H](C)CO)C(=O)c2cc(NC(=O)CCN3CCOCC3)ccc2O[C@H]1CN(C)C(=O)Nc1ccccc1	10
COc1ccc2c(c1)c(=O)oc1cc(OC(C)C)ccc12	35
COc1ccc(NC(=O)Nc2ccc3c(c2)C(=O)N([C@H](C)CO)C[C@H](C)[C@H](CN(C)Cc2ccc(Cl)c(Cl)c2)OCCCC[C@@H](C)O3)cc1	98*
CS(=O)(=O)CCC(C(=O)Nc1cccc2ncccc12)N1C(=O)c2cc(Cl)c(Cl)cc2C1=O (stereo unspecified)	13
C[C@H](CO)N1C[C@H](C)[C@H](CN(C)Cc2ccc(-c3ccccc3)cc2)Oc2ccc(NS(=O)(=O)c3ccc(Cl)cc3)cc2CC1=O	74
Cc1cc(C(=O)Nc2cccc3c2O[C@@H](CN(C)CC2CC2)[C@H](C)CN([C@H](C)CO)C3=O)n(C)n1	-1
C[C@H]1CN([C@@H](C)CO)C(=O)c2cccc(NC(=O)c3ccc(-c4nccs4)cc3)c2O[C@@H]1CN(C)C(=O)Nc1ccc(F)cc1	-10
COc1ccc(S(=O)(=O)N(C)C[C@@H]2Oc3ccc(NC(=O)CCCCCC(=O)Nc4ccccc4N)cc3C(=O)N([C@H](C)CO)C[C@@H]2C)cc1	?
Cc1ccc(S(=O)(=O)Nc2cccc3c2O[C@H](CN(C)S(=O)(=O)c2ccc(F)cc2)[C@H](C)CN([C@H](C)CO)C3=O)cc1	42
C[C@H]1CN([C@@H](C)CO)C(=O)c2cccc(NS(=O)(=O)c3ccccc3)c2O[C@@H]1CN(C)Cc1ccc(Oc2ccccc2)cc1	10
CCC(CO)NC(=S)Nc1cc(C(F)(F)F)cc(C(F)(F)F)c1 (stereo unspecified)	45
C[C@H]1CN([C@@H](C)CO)C(=O)c2cccc(NC(=O)c3nc4ccccc4s3)c2O[C@H]1CN(C)Cc1ccc2c(c1)OCO2	54
Cc1nc(SCC(=O)c2ccc(Cl)s2)c2c(C)c(C)sc2n1	9
CCOc1cc(/C=C2/SC(=N)N(c3nccs3)C2=O)ccc1OCCN1CCOCC1	112*
CC(=O)c1cccc(NC(=O)CCN2C(=O)c3ccccc3S2(=O)=O)c1	-23
C[C@H]1CN([C@@H](C)CO)C(=O)Cc2cc(NC(=O)C3CC3)ccc2O[C@H]1CN(C)S(=O)(=O)c1ccc(F)cc1	8
C[C@@H]1CN([C@@H](C)CO)C(=O)c2cc(NC(=O)CCCN(C)C)ccc2O[C@@H]1CN(C)S(C)(=O)=O	-8
C[C@H]1CN([C@@H](C)CO)C(=O)c2cccc(NC(=O)c3cnccn3)c2O[C@@H]1CN(C)S(=O)(=O)c1ccc(Cl)cc1	-11
COc1ccc(CN(C)C[C@@H]2Oc3c(NC(=O)Nc4c(C)noc4C)cccc3C(=O)N([C@@H](C)CO)C[C@@H]2C)cc1	16
COc1cc(CSc2nnnn2-c2ccc(C)cc2C)cc(OC)c1OC	46
COc1ccc(NC(=O)CCN2CCc3ccccc3C2)c(OC)c1	17
NC(=O)c1ccc2ccccc2c1	22
O=C(CCCN1C(=O)c2ccccc2C1=O)Nc1ccccc1F	-23
C[C@H](CO)N1C[C@H](C)[C@H](CN(C)C(=O)Nc2ccc(F)cc2)Oc2ccc(NS(=O)(=O)c3ccc(F)cc3)cc2CC1=O	2

Assay outcomes deposited in PubChem BioAssay by Broad Institute.
